Assay outcomes: PubChem BioAssay, National Center for Advancing Translational Sciences (NCATS)
HPGD inh: blocks human HPGD enzyme activity. P15428. 150,000 tested, 4.3% active. Potency, µM, for the others: at the highest dose activity change, negative = inhibition, actives largely listed as inhibitors. purified HPGD, NADH fluorescence kinetic, PGE2 substrate; active = well fitted inhibition curve with a large enough effect (not every such curve was filed as active); inconclusive = small, poorly fitted or top-dose-only effect, or another doubt; inactive = no such curve, though single readings can be large or run the other way;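 also: top concentration of the series not given in the record; plate controls included wells without enzyme; inactives centre near -10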
Target sequence (P15428 whole entry, looked up): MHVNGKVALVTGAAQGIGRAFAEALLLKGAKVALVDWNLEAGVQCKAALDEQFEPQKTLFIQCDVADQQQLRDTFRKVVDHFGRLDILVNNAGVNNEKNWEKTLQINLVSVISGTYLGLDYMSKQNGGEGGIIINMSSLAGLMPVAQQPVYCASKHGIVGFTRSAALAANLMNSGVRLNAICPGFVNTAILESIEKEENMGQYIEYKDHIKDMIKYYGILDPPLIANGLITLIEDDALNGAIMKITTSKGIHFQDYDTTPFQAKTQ
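NADH formation kinetics: reaction with 30 uM PGE2 and 1 mM NAD+ (final), 20 nM enzyme, Tris-HCl pH 8 with Tween 20, after 15 min compound preincubation at room temperature. Fluorescence change, last versus first of five reads.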
Active calls of the source: *; ? = inconclusive; & = joins results of further samples. % is scaled to controls: 0 for no effect and ±100 for the full control effect; potency is read from the fitted curve at half-maximal effect. Some of the compounds tested, so the mix of outcomes need not match the whole.

The opening three entries, ahead of the listing:
| HPGD inh | Structure |
| --- | --- |
| -10% | CCCC(C)C(=O)Nc1ccncc1 (configuration not stated) |
| -5% | CCOC(=O)C1CCN(S(=O)(=O)c2ccc(C(=O)OC)cc2)CC1 |
| 1% | O=C(CNC(=S)N(Cc1ccc(F)cc1)C1CCCCC1)NC1CC1 |

All compounds of this part, from the first entry:
| HPGD inh | Structure |
| --- | --- |
| -10% | CCCC(C)C(=O)Nc1ccncc1 (configuration not stated) |
| -5% | CCOC(=O)C1CCN(S(=O)(=O)c2ccc(C(=O)OC)cc2)CC1 |
| 1% | O=C(CNC(=S)N(Cc1ccc(F)cc1)C1CCCCC1)NC1CC1 |
| -4% | CC(Sc1nc2ccccc2s1)C(=O)NC1CCCc2ccccc21 (configuration not stated) |
| -27% | Cc1cc(C)cc(C(=O)N2CC(=O)Nc3ccccc32)c1 |
| -8% | Cc1nn(-c2ccccc2)c(Cl)c1/C=N/NC(=O)c1ccco1 |
| ? | CSc1nc2ncc3c(n2n1)CC1c2ccccc2CCN1C3=O (configuration not stated) |
| -22% | Cc1nnc(SCC(=O)N/N=C/c2cn(-c3ccccc3)nc2-c2ccccc2)n1-c1ccccc1 |
| -15% | CCOC(=O)c1sc(NC(=O)C2CC=CCC2C(=O)O)nc1C (configuration not stated) |
| -26% | CCn1c(C)c(C2=CCN(S(=O)(=O)c3ccccc3)CC2)c2ccccc21 |
| -10% | O=C(CSc1cn(Cc2ccccc2)c2ccccc12)Nc1nccs1 |
| -20% | COc1cc(SC#N)ccc1N=Cc1c(C)[nH]n(-c2ccc(Cl)cc2)c1=O |
| 14µM* | Cc1nn(Cc2cccc(C(=O)N3CCCC(C)C3)c2)c(C)c1[N+](=O)[O-] (configuration not stated) |
| ? | O=C(Nc1nc(-c2cc3ccccc3oc2=O)cs1)c1ccc(Br)o1 |
| -6% | C=CCNC(=S)N/N=C/c1ccc(OCc2ccccc2Cl)cc1 |
| 0% | COc1ccc(CSC2=NCCN2)cc1Cl |
| -4% | Cc1cccc(NC(=O)c2cnn(C)c2)c1C |
| -5% | Nc1nnc2c(n1)CCCC2 |
| -21% | CCN(CC)C(C(=O)Nc1ccc(C(C)C)cc1)c1ccc2c(c1)OCO2 (configuration not stated) |
| -20% | CCc1ccc(OCC(=O)NC(=S)Nc2cccc(CO)c2)c(Br)c1 |

A draw from above in order of heavy-atom count, descending:
| HPGD inh | Structure |
| --- | --- |
| -22% | Cc1nnc(SCC(=O)N/N=C/c2cn(-c3ccccc3)nc2-c2ccccc2)n1-c1ccccc1 |
| 14µM* | Cc1nn(Cc2cccc(C(=O)N3CCCC(C)C3)c2)c(C)c1[N+](=O)[O-] (configuration not stated) |
| -4% | CC(Sc1nc2ccccc2s1)C(=O)NC1CCCc2ccccc21 (configuration not stated) |

The listing continues.
| HPGD inh | Structure |
| --- | --- |
| -12% | Cc1ccc(Cn2c(=O)cc(C(=O)O)c3ccccc32)cc1 |
| -11% | COCC(=O)N(CCc1ccc(OC)c(OC)c1)Cc1nc2ccccc2c(=O)[nH]1 |
| -5% | CCCOc1ccc(CN(CCO)CCO)cc1[N+](=O)[O-] |
| -1% | CCOC(=O)c1ccc(NC(=O)CSc2nnc(Cc3cccs3)n2C)cc1 |
| -13% | CC(C)c1ccc(NC(=O)C(c2ccc3c(c2)OCO3)N2CCC3(CC2)OCCO3)cc1 (configuration not stated) |
| -7% | Cc1ccccc1-n1nnnc1SCCCC(=O)c1ccc(F)cc1 |
| -12% | CCOC(=O)c1cn(-c2ccc(F)c(F)c2)c2c(F)c(F)c(F)c(F)c2c1=O |
| -12% | COCCN1Cc2cccc(C(=O)Nc3ccc4c(c3)OCCO4)c2C1=O |
| -15% | Cc1cccc(NC(=O)CSc2nc3ccc(N4C(=O)c5ccccc5C4=O)cc3s2)c1C |
| -5% | COC(=O)c1c(C)c2c(C)cc3ccccn3c-2c1C(=O)OC |
| -29% | CCOc1cccc2cc(-c3cn4cc(C)ccc4n3)c(=O)oc12 |
| -14% | O=C1c2cccnc2C(=O)N1Cc1ccco1 |
| -5% | CC(C)(CNC(=O)c1cc2ccccc2o1)N1CCOCC1 |
| ? | Cc1c(C)n(C)c2ccc(C(=O)NCc3cccs3)cc12 |
| -5% | COc1cccc(-n2sc3c(c2=S)-c2cc(OC)ccc2NC3(C)C)c1 |
| -29% | Nc1cc(-c2ccc(Br)cc2)nn1S(=O)(=O)c1cccc2nsnc12 |
| -3% | Cc1ccccc1C(=O)NC(C)C(c1cccs1)N1CCOCC1 (configuration not stated) |
| -6% | Nc1ccn([C@@H]2CS[C@H](CO)O2)c(=O)n1 |
| -16% | Cc1nnc(SCc2ccc(F)cc2Cl)s1 |
| -3% | COc1cc(OC)cc(C(=O)Nn2c(C)nc3ccccc3c2=O)c1 |

An excerpt of these results, field by field:
canonical_smiles: COCC(=O)N(CCc1ccc(OC)c(OC)c1)Cc1nc2ccccc2c(=O)[nH]1
  HPGD inh: -11%
canonical_smiles: Cc1nn(Cc2cccc(C(=O)N3CCCC(C)C3)c2)c(C)c1[N+](=O)[O-] (configuration not stated)
  HPGD inh: 14µM*

Other compounds follow.
| HPGD inh | Structure |
| --- | --- |
| -4% | Cc1cccnc1NCC(O)COc1ccccc1 (configuration not stated) |
| -17% | CCOC(=O)C1C(=O)NC(N2CCCCC2)=NC1c1ccco1 (configuration not stated) |
| -8% | O=C(NC1CCCC1)C(c1ccc(F)cc1)N(Cc1ccc(F)cc1)C(=O)c1ccn[nH]1 (configuration not stated) |
| -9% | O=C1CSC(c2cccc(Cl)c2Cl)N1c1ccccn1 (configuration not stated) |
| -15% | CC[C@H](C)[C@@H](NC(=O)O[C@@H]1C(=O)c2cc(OC)ccc2O[C@H]1c1cccc(OC)c1)C(=O)OC |
| -16% | COc1ccc(CCNc2ccc(S(=O)(=O)N3CCCC3)cc2[N+](=O)[O-])cc1 |
| -12% | O=C(OCC(=O)N1c2ccccc2Sc2ccccc21)C1CC(=O)N(Cc2ccco2)C1 (configuration not stated) |
| -10% | CC(C)COC(=O)NCCOC(=O)Nc1cccc(Cl)c1 |
| -26% | CCOC(=O)c1c(CSc2ccccc2)oc2ccc(O)cc12 |
| -11% | CCN(CC)C(=O)C1CC(c2ccc(OC)cc2)=NO1 (configuration not stated) |
| -3% | N#CC1=C(Nc2ccc(Br)cc2)CCC1 |
| -5% | COCCCNC(=O)CC(NS(=O)(=O)c1ccc(C)cc1)c1ccc(OC)cc1 (configuration not stated) |
| ? | COc1ccc(-c2nc3nc(C)cc(C)n3n2)cc1 |
| -14% | CCCc1c(C)[nH]c2ccccc2c1=O |
| -2% | Cc1cc(C)n(C(=O)CN2C(=O)CCC2=O)n1 |
| -19% | COc1ccc(CN(C(=O)/C=C/C(=O)c2ccc(OC)cc2O)C(C(=O)NC2CCCCC2)c2ccncc2)cc1 (configuration not stated) |
| 16µM* | COc1ccccc1N(CC(=O)N/N=C/c1ccc(OCC(=O)NCc2ccco2)cc1)S(=O)(=O)c1ccc(C)cc1 |
| -13% | CCOC(=O)N1CCN(S(=O)(=O)c2ccc(OCC(=O)OC)c(Cl)c2)CC1 |
| -4% | COc1ccc2c(c1)c(C(=O)OCCN(C)C)c(C)n2C |
| -14% | N#CCSc1nnc2sc3ccccc3n12 |
| -1% | S=C(NCc1ccncc1)Nc1cccc(Cl)c1 |
| -18% | COCCCn1c2nc3ccccc3nc2c2c(=O)n(Cc3cccs3)cnc21 |
| -10% | CCC1(C)Cc2c(C#N)c(N)n(N)c(=S)c2CO1 (configuration not stated) |
| -27% | CCc1cccc(NC(=O)c2ccc(NS(=O)(=O)c3c(C)noc3C)cc2)c1 |
| -10% | C=CCNC(=O)CCCCCNS(=O)(=O)c1ccc(OC)cc1 |
| -3% | O=C(NC1CCCCCC1)C1CCN(C(=O)Cc2ccccc2)CC1 |
| -17% | Cc1ccc(S(=O)(=O)Nc2cc(=O)[nH]c(SCc3ccc(Cl)cc3)n2)cc1 |
| -26% | c1ccc(C2=Nc3ccccc3OC2)cc1 |
| -5% | CC(C)Oc1c(Cl)cc(CNC(C)(C)CO)cc1Cl |
| -28% | Cc1ccc(S(=O)(=O)Nc2ccc3nc(C)sc3c2)cc1 |
| -12% | CC(C)Oc1ccc(CC(=O)NNC(=S)Nc2ccc(Br)cc2)cc1 |
| -27% | COc1ccc(-c2csc(N(CC3CCCO3)C(=O)c3cccs3)n2)cc1 (configuration not stated) |
| -18% | Cc1nn(C)c(C)c1S(=O)(=O)N1CCCC(C(=O)NCC2COc3ccccc3O2)C1 (configuration not stated) |
| 0% | Cc1ccc(NS(=O)(=O)c2ccc(OCC(=O)NCc3cccnc3)cc2)cc1 |
| -9% | Cc1ccc(CNC(=O)c2ccc3nc4[nH]c5ccccc5c4nc3c2)cc1 |
| -10% | CCOC(=O)c1cc(NC(=O)N2CCCc3ccccc32)c(C)nc1C |
| -8% | Cc1ccc(NC(=S)NCc2cccnc2)cc1 |
| -6% | Cc1cccc(C(=O)Nc2cccc(C(=O)N/N=C/c3ccncc3)c2)c1 |
| 1% | O=C(CN1CCC(n2nnc3cc(C(F)(F)F)ccc32)CC1)NCc1cccs1 |
| 4% | CN(C)CCCOc1cccc(Cl)c1 |
| -3%&-6% | CN(C)/C=N/c1cc(=O)n(Cc2ccccc2)c(=O)n1C |
| -27% | O=C1c2ccccc2NC(c2ccc(-c3ccc(Br)cc3)o2)N1O (configuration not stated) |
| ? | O=c1oc(-c2cccs2)nc2ccc(Br)cc12 |
| -3% | COc1ccc(CCNC(=O)C2CCN(S(=O)(=O)c3cc(OC)ccc3OC)CC2)cc1 |
| ? | Cc1cc2nc(-c3cccnc3SCC(=O)NCc3ccco3)[nH]c2cc1C |
| -8% | CCOc1ccc(Nc2cc(C)nc3nc(C)nn23)cc1 |
| -1% | O=C(/C=C/c1ccccc1)NCC(=O)N/N=C\c1cccnc1 |
| -16% | N=S(=O)(O)Cc1noc2ccccc12 |
| -13% | COc1ccc(S(=O)(=O)N(C)CC(=O)Nc2ccccc2C(F)(F)F)cc1Cl |
| 1% | O=C(Nc1cccc(-c2cnc3ccccc3n2)c1)c1ccccc1 |
| -8% | O=c1c2ccccc2ncn1CCOCCOc1cccc(Br)c1 |
| -11% | Cc1cccc(C(CC(=O)O)n2cccc2)c1 (configuration not stated) |
| -5% | CCS(=O)(=O)N1CCN(C(=O)c2ccccc2)CC1 |
| 0% | CCOC(=O)c1ccc(CSc2nnc(C)n2N)o1 |
| -6% | C=CCn1c(C)cc(-c2csc(N)n2)c1C |
| -15% | Cc1nc2c(cnn2-c2ccccc2Cl)c(=O)n1-c1ccc(C(C)C)cc1 |
| -5% | CC1(C)CC(C)(O)P(=O)(c2ccccc2)O1 (configuration not stated) |
| -8% | CC(C)C[C@H](NC(=O)NC(C)C)C(=O)O |
| -9% | CC(=O)O[C@@H]1CC2C(C)(C)C(=O)C=C[C@]2(C)C2CC[C@]3(C)C(=CC[C@H]3C3CO[C@@H](C(C)(C)O)[C@H](O)C3)[C@@]21C (some centres not stated) |
| -17% | Cc1cc([N+](=O)[O-])nn1CCCC(=O)Nc1cc(Oc2ccccc2)cc([N+](=O)[O-])c1 |

The listing continues:
| HPGD inh | Structure |
| --- | --- |
| 1% | CC1Cc2ccccc2N1C(=O)c1cnsn1 (configuration not stated) |
| -2% | CCC(=O)Nc1cccc(-c2cnc3ccccc3n2)c1 |
| -3% | Cc1ccc(OCc2nnc(NC(=O)OCC(C)C)s2)cc1 |
| -14% | CCOC(=O)c1c(C)[nH]c(C)c1C(=O)COC(=O)c1cc2ccccc2cc1OC |
| -5% | CCC(C)[C@H](NC(=O)NCCCn1ccnc1)C(=O)OC (some centres not stated) |
| -11% | C/C(=N\Nc1nc(-c2cc(C)ccc2C)cs1)c1cc2c(ccc3ccccc32)oc1=O |
| ? | N#Cc1nc(-c2cccc(Cl)c2)oc1NCc1cccnc1 |
| -4% | COc1ccc(C2(O)CCN(Cc3nnnn3Cc3ccc(C)cc3)CC2)cc1 |
| -1% | CC(C(=O)N1CCCCC1)N1C(=O)c2ccccc2C1=O (configuration not stated) |
| -19% | Cc1c(-c2ccccc2)oc2c(C(=O)OCC(=O)Nc3ccc(F)cc3)cccc2c1=O |
| ? | CCSc1nc(N)c(C#N)c(-c2ccccc2Cl)c1C#N |
| -26% | COc1ccc(NC(=O)CCNS(=O)(=O)c2ccc3c(c2)c(=O)n(C)c(=O)n3C)cc1 |
| -16% | O=C(OCc1ccccc1)c1ccc2c(c1)-c1ccccc1C2=O |
| 16µM* | CCc1nnc(SCC(=O)NC2CCCC2)nc1CC |
| -3% | COCC(=O)NC(c1ccccc1)c1ccccc1 |
| -13%&1% | N=C(N)SCCc1cnc[nH]1 |
| -1% | C=CCn1c(Cc2c[nH]c3ccccc23)nnc1SCC(=O)NCc1ccccc1 |
| -3% | CCNC(=O)Cn1cc(C#N)c2ccccc21 |
| -24% | CC(=O)c1c(C)[nH]c(C(=O)N2c3ccccc3CC2C)c1C (configuration not stated) |
| ? | CCOc1ccc(NS(=O)(=O)c2ccc3[nH]cc(C(=O)NCC4CCCO4)c(=O)c3c2)cc1 (configuration not stated) |
| -1% | C=C1C(=O)O[C@@H]2C3OC3(C)CC/C=C(\C)CC[C@@H]12 (some centres not stated) |
| ? | FC(F)(F)c1nnc2c(Sc3ccc(Cl)cc3)nc3ccccc3n12 |
| ? | O=C(N/N=C/c1cccc(OCc2ccccc2)c1)c1ccc(Br)cc1 |
| -25% | CCOCCOC(=O)C1=C(C)Nc2ccc(C)cc2S1 |
| -4% | COc1ccccc1NC(=S)NN1CCN(C)CC1 |
| 0% | CCc1ccccc1NC(=O)CC(c1ccc(OC)cc1)n1cccc1 (configuration not stated) |
| -26% | CCC(c1nnnn1C1CCCCC1)N(Cc1ccco1)Cc1cc2ccc(OC)cc2[nH]c1=O (configuration not stated) |
| -2% | CC(C)CC(NC(=O)CCl)c1ccccc1 (configuration not stated) |
| ? | CC1=C(C(=O)Nc2cccc(C)n2)C(c2ccc3c(c2)OCO3)C2=C(CC(c3ccco3)CC2=O)N1 (configuration not stated) |
| -10% | O=C(c1ccco1)N(Cc1cc2ccccc2[nH]c1=O)C1CCCCC1 |
